Compound activity: PubChem, several laboratories
Mtb bLac sens – beta-lactam sensitization of Mtb H37Rv. actives 0.27% (n = 330,000). AID 434955. inhibition, % at 25 µM. M. tuberculosis H37Rv growth with meropenem, percent inhibition; hits of this screen are not shown here;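 active means about 74% or more and at least 40 points above the plate without the antibiotic, then above 30% in a dose series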;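 further: growth measured after seven days incubation then overnight dye step; 0% = bacteria only wells and 100% = bacteria with antibiotic; twin plates without the antibiotic show which effects depend on it; some results filed as inactive read as strong as hits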
Arbovirus inh – blocks arbovirus infection; arbovirus infection cell-based antiviral screen; inhibition, % at 10 µM; actives 0.37% (n = 200,000); AID 1251;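 active means inhibition from about 30%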;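 further: bluetongue infection of BSR cells; cell survival read as ATP light after 72 h; 0% = infected wells without compound and 100% = uninfected wells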
RecA intein inh – inhibitors of M. tuberculosis RecA intein splicing; P9WHJ3; cell-free RecA intein splicing, fluorescence; inhibition, %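 (about 9 µM by stock and volumes)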; actives 0.75% (n = 290,000); AID 2221; in the data active means inhibition above about 30%;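 further: 0% = vehicle wells and 100% = reference inhibitor control wells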
Target sequence (P9WHJ3 whole entry, looked up): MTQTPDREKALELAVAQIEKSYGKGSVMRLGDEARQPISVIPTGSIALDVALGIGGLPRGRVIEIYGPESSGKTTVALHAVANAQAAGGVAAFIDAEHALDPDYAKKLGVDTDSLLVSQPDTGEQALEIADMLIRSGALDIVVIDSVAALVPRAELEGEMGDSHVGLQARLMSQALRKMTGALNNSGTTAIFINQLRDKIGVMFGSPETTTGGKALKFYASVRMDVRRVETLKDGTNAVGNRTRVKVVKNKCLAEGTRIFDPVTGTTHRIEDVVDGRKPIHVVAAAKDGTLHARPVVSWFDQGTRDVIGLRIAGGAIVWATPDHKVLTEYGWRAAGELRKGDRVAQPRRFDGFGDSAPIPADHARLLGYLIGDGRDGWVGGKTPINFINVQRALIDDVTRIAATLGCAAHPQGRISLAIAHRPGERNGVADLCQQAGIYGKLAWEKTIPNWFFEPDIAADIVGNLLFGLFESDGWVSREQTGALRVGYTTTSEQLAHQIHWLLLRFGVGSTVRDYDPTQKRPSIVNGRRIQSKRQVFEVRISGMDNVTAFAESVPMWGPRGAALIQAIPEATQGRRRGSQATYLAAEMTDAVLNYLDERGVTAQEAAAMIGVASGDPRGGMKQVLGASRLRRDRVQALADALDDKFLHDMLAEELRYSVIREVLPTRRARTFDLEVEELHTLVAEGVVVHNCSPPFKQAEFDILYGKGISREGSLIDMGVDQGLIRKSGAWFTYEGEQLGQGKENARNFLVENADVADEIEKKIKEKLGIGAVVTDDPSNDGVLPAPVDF
Mtb H37Rv – M. tuberculosis H37Rv growth inhibitors, H37Rv strain (AID 1626) | inhibition, % at 10 µM; hits with a dose series show IC50 in µM | M. tuberculosis H37Rv growth inhibition; higher % means a stronger effect | actives 0.95% (n = 220,000);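 active means confirmed in a dose series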;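 further: bacteria incubated seven days before Alamar blue readout; 0% = bacteria only wells and 100% = bacteria with antibiotic wells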
YopH inh – blocks Yersinia enterocolitica YopH tyrosine phosphatase; fluorescence Ex485/Em525; inhibition, %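 (about 10 µM by stock and volumes)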; actives 0.16% (n = 140,000);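 active means inhibition of 50% or more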;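 further: controls were vehicle for no effect and minimum signal wells for full effect; inactives centre near -20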
Arbovirus inh repeat – recorded beside Arbovirus inh, whose call it bears; inhibition, %; measured here: 10K subset replicate screen; many hits read low in the repeat;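 first of two repeat runs on a subset; 0% = infected and 100% = uninfected wells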
* = called active by the depositor; . = not tested or not shown.

SMILES	Mtb bLac sens	Arbovirus inh	RecA intein inh	Mtb H37Rv	YopH inh	others
CC(C)NC(=O)c1ccccc1S(=O)c1ccccc1C#N (stereo unspecified)	-3	-1	-0.5	2%	-50
O=C(Nc1nc2ccccc2[nH]1)c1ccccc1[N+](=O)[O-]	18	21	2.7	12%	.
CC(N=c1ccccn1C(=O)Nc1ccc(Cl)cc1)c1ccco1 (stereo unspecified)	-1	6	-0.2	-13%	-4
CCOC(=O)N1CCN(C(=O)COC(=O)c2ccc(O)cc2O)CC1	-19	18	-4.3	7%	.
Cc1ccc(C(=O)NCc2cccnc2)cc1S(=O)(=O)Nc1ccccc1	3	8	-3.9	3%	.
C=CCCCCCCCCC(=O)Nc1ncccn1	-3	.	1.6	18%	.
CS(=O)(=O)N1CCCC(C(=O)N2CCOCC2)C1 (stereo unspecified)	7	7	0.1	-8%	-10
CCc1nnc(NC(=O)CSc2ccc(-c3ccc(C)cc3)nn2)s1	1	0	.	6%	.
O=[N+]([O-])c1ccc(S(=O)(=O)Nc2ccc(-c3ccc(N4CCCC4)nn3)cc2)cc1	2	.	-1.3	.	.
CCSc1ncc(C#N)c(N)n1	1	2	0.7	2%	5
C=CCOc1c(Br)cc(C2C3=C(CCCC3=O)N(C)C3=C2C(=O)CCC3)cc1OCC	5	-4	-125	9%	-4
CCn1ncc(/C=N/N=C2\CCC3C4CCc5cc(O)ccc5C4CCC23C)c1C (stereo unspecified)	-6	-20	-3.1	9%	-6
CC1CCCN(C(=O)CCNS(=O)(=O)c2ccc(Br)cc2)C1 (stereo unspecified)	-1	.	-5.0	.	.
Cc1ccc(CC2CC(=O)N(CCc3ccc4c(c3)OCO4)C2=O)cc1 (stereo unspecified)	-3	0	1.4	-4%	-5
CCN(CC)C(=O)C(=O)c1cn(CC(=O)NCc2ccc3c(c2)OCO3)c2ccccc12	0	0	0.7	6%	.
COc1ccc(NC(=O)Cn2ccc3c(OC)cccc3c2=O)cc1	-5	.	-0.2	-12%	.
CC(=O)c1ccc(N2CCN(S(=O)(=O)c3csc(C(N)=O)c3)CC2)cc1	9	.	-2.0	.	.
CC(C)(C)c1ccc(C(=O)Nn2cnnc2)cc1	-1	.	-0.9	.	.
N#CCCN1CCN(S(=O)(=O)c2ccc(S(=O)(=O)N3CCOCC3)cc2)CC1	7	10	2.7	-2%	-28	Arbovirus inh repeat=7
CCN1CCN(Cc2ccc(NC(=O)Nc3ccc(SC)cc3)cc2)CC1	-9	-33	3.3	2%	-20
COC(=O)[C@@H]1CCCN1Cc1nc(Cc2ccccc2F)no1	2	-1	-1.6	-2%	.
COc1ccc(CN(CC2CCCO2)S(=O)(=O)c2ccc(-n3cnnn3)c(OC)c2)cc1 (stereo unspecified)	-6	0	0.8	-7%	.
Cc1ccccc1CSc1nnc(C)n1N	5	10	-1.9	-5%	-24
CCOC(=O)Cn1cc(C(=O)OC)c2ccccc21	-2	1	-0.6	-2%	-37
CC(C)c1ccc(/C=C/C(=O)N2CCCCCC2)cc1	2	6	5.3	6%	-24
Cc1ccc(N(CC(=O)N2CCN(c3ccc(F)cc3)CC2)S(=O)(=O)c2c(C)nn(C)c2C)cc1	5	5	-6.0	3%	-31
CCOC(=O)c1nn(-c2ccc(C)cc2)c(=O)cc1OCC(=O)Nc1cccc(OC)c1	-7	.	-1.2	.	.
COc1ccc(C2(c3cccc(O)c3OC)CCN(C(C)=O)CC2)cc1O	-13	.	-3.3	-5%	.
Cc1ccc(NC(=S)NCc2ccc3c(c2)OCO3)cc1C	3	10	7.2	10%	-26
Cc1ccc2oc(=O)n(CCCOc3ccccc3)c2c1	6	1	.	12%	3
CCc1cc(C(=O)N2CCCC(CNS(=O)(=O)c3cccs3)C2)n(C)n1 (stereo unspecified)	0	7	1.6	-5%	.
Cc1ccc(S(=O)(=O)NCCOc2cc(C)ccc2C)cc1	8	.	5.0	.	.
CC1CCCCC1NC(=O)C1CCN(S(=O)(=O)c2cccc3nonc23)CC1 (stereo unspecified)	0	.	0.1	.	.
CN(CC(=O)NCC1CCCO1)S(=O)(=O)c1cc(Cl)ccc1Cl (stereo unspecified)	-5	-2	-0.7	-1%	7
O=C(/C(Br)=C/Nc1cc(Cl)ccc1Cl)C(F)(F)F	0	6	1.0	-4%	-11
O=C(NCC1CCCO1)c1cc([N+](=O)[O-])ccc1Cl (stereo unspecified)	-9	-6	0.2	-4%	.
CCOc1cc(C)c(Cl)cc1S(=O)(=O)N(CC)CC	33	4	2.2	62%	-7
COc1ccc(C(=O)CN2C3=NCCCN3c3ccccc32)cc1OC	-2	11	1.4	-2%	-24	Arbovirus inh repeat=5
O=C(NCc1ccco1)c1ccc2c(=O)n(CC3CCCO3)c(=S)[nH]c2c1 (stereo unspecified)	-4	4	1.7	-11%	-31
Cc1nc2ccccc2c(=O)n1NC(=O)Nc1ccccc1	-3	-2	0.4	0%	-13
Cn1nc(-c2ccccc2)c(-c2nc(-c3ccc(Cl)cc3)no2)c1Cl	-8	6	0.0	5%	5
CC(C)OP(=O)(OC(C)C)C(Nc1ccccc1)c1cccc([N+](=O)[O-])c1 (stereo unspecified)	-1	.	0.6	-2%	.
O=C(CN1CCN(C(=O)c2cccs2)CC1)NC1CCCCC1	2	-1	6.0	-4%	-54
CC(C)c1cc(NCC2CCCO2)n2c(nc3ccccc32)c1C#N (stereo unspecified)	-9	-9	-218	-9%	-14
COC1(OC)C(/C=C/c2ccc(Cl)cc2)C(C#N)(C#N)C1(OC)OC (stereo unspecified)	22	-36	73*	7%	-22
CCCCC(=O)Nc1cccc2c1C(=O)N(c1ccccc1)C2=O	0	1	-1.8	-2%	-19
CC(C(=O)N1CCOCCOCCOCC1)N1C(=O)c2ccccc2C1=O (stereo unspecified)	-1	2	-1.7	17%	.
O=C(O)c1ccc(NS(=O)(=O)c2ccc3nnn(O)c3c2)cc1	-9	13	-0.4	-2%	-37
CCCCNC(=O)C1CC(c2c(Cl)cccc2Cl)=NO1 (stereo unspecified)	-1	1	-1.5	-13%	-34
COc1ccccc1CN(C)C(=O)C(NC(=O)Cc1cccc2ccccc12)C(C)C (stereo unspecified)	7	.	9.4	.	.
COCCCN1C(=O)C(=O)/C(=C(/O)c2ccc(OC(C)C)cc2)C1c1cccnc1 (stereo unspecified)	-10	-1	1.5	-13%	-26
Cc1ccc(NC(=O)Cn2nc(C(F)(F)F)c3c2CCC3)cc1	3	-7	.	-1%	-12
O=[N+]([O-])c1ccc(Cl)cc1N1CCCCC1	3	-4	1.8	-4%	.
Cn1c(CNc2cccc(C(F)(F)F)c2)n[nH]c1=S	-2	-5	7.9	-2%	.
C=CCOc1ccc(Cl)cc1C(=O)O	-6	-4	-0.6	7%	-40
COc1cccc(/C=N/Nc2nnc(C)n2N)c1OCc1ccccc1Cl	-6	-7	2.0	-7%	-12
CC1CCCCN1CCNC(=O)c1ccc2c(=O)n(Cc3ccc(Cl)cc3)c(=S)[nH]c2c1 (stereo unspecified)	29	.	1.2	.	.
NCC(=O)NCC(=O)OCc1ccccc1	-1	9	4.6	6%	.
C=CCn1c(CC(=O)OC)csc1=Nc1ccc(C(C)=O)cc1	3	7	-0.8	5%	-53
COc1ccc(N(CC(=O)Nc2cccc(SC)c2)S(C)(=O)=O)cc1Cl	2	10	4.8	-1%	-32	Arbovirus inh repeat=-2
Other results follow:
SMILES	Mtb bLac sens	Arbovirus inh	RecA intein inh	Mtb H37Rv	YopH inh	others
COc1ccc(-n2c(C)cc(-c3cn4cccc(C)c4n3)c2C)cc1	85	15	.	65%	.
C#CCSc1nccc(-c2nn(-c3ccc(C)cc3)ccc2=O)n1	-12	-13	-2.1	-6%	-15
CSc1nc(C)c2c(n1)N(c1cccc(C)c1)CC2	100	-17	6.5	66%	-22
CC1c2cc3c(cc2CCN1C(=O)c1ccc(C(F)(F)F)cc1)OCCCO3 (stereo unspecified)	5	.	5.5	.	.
NS(=O)(=O)c1ccc(CCNC(=O)Cc2c[nH]c3ccccc23)cc1	-3	2	17	-4%	-16
COC(=O)c1ccc(CSc2nc3c(c(=O)n2-c2ccc(F)cc2)SCC3)o1	2	-7	-1.7	1%	-118	Arbovirus inh repeat=-13
Cc1nc([N+](=O)[O-])c(Sc2nc3ccc([N+](=O)[O-])cc3[nH]2)n1Cc1ccccc1	7	-14	17	1%	-13
Cc1cn2c(nc1=O)OC1C(O)C(COC(=O)c3ccccc3)OC12 (stereo unspecified)	5	5	3.8	0%	-33
COc1cccc(CNc2nc3nc(C)c(Cl)c(=O)n3[nH]2)c1	6	.	-8.2	-19%	.
NC(=O)c1ccccc1NS(=O)(=O)c1cccs1	4	15	-4.6	3%	-2
Cc1cccc(-n2cnc3cc([N+](=O)[O-])ccc32)c1	2	-4	3.2	-3%	-10
COc1ccc2nc(N/C(N)=N/S(C)(=O)=O)nc(C)c2c1	6	.	-1.6	-4%	.
Cc1cccc(/N=C/c2c(O)ccc3oc4c(c23)CCCC4)n1	64	0	0.7	0%	-30
Cc1cc(Br)ccc1OCC(=O)NNC(=O)c1ccc(NC(=O)C2CC2)cc1	8	-6	-7.1	.	-6
COc1ccc(/C=C/C(=O)Oc2cccc(/C=N/NC(=O)Cc3ccc(Br)cc3)c2)cc1	54	.	-13	-3%	.
CCn1c(=O)cc(SCC(=O)N2CCC3(CC2)OCCO3)c2ccccc21	-3	-6	1.6	-6%	-19
COC(C(=O)N/N=C(\C)c1ccc(C)cc1)c1ccccc1 (stereo unspecified)	-2	.	1.1	.	.
COCCCN1C(=O)N(c2ccccc2)C(=O)C1CC(=O)Nc1ccccc1 (stereo unspecified)	-7	.	-1.7	.	.
COc1ccc(C(C)=O)cc1COc1cccnc1[N+](=O)[O-]	-6	.	-1.9	.	.
CC(C)(C)c1ccc(Cn2c(=O)cnc3ccccc32)cc1	0	.	1.4	.	.
C=CCN1C(=O)C2(OCCCO2)c2ccccc21	-6	.	-1.0	.	.
O=C(CCCN1C(=O)C(c2ccccc2)Oc2cccnc21)Nc1cccc(F)c1 (stereo unspecified)	-2	.	4.7	.	.
O=C(O)CC1(c2ccc(F)cc2)C2CC3CC(C2)CC1C3 (stereo unspecified)	0	.	-0.8	.	.
CCOC(=O)N1CCC(NC(=O)c2cc3c(=O)[nH]c4ccccc4c3n2C)CC1	4	-1	2.2	4%	.
CSc1nc2nc3c(cn2n1)C(=O)CC(c1ccccc1)C3 (stereo unspecified)	-7	1	-0.3	0%	9

An excerpt (hit frequency here may not be typical).
